# Menin MLL FP FL – menin-MLL binding inhibition, fluorescein peptide; Fluorescence polarization, fluorescein-MLL peptide displacement from menin; FP activity change, % at 61.4 µM; 290,000 tested, under 10 active; inconclusive = falling polarisation curve, or a change in total fluorescence; inactive = total fluorescence flat and polarisation flat or rising; no compound was filed as active; the % refers to the polarisation; negative = inhibition;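 note: % of control where 0% means no effect; inhibitors lower the polarisation; unlabelled MLL peptide was the positive control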
# gsp agonist – activates gsp, the McCune-Albright syndrome mutation; gsp mutant cells, cAMP HTRF, 30 min; control for the full effect not named in the record; Potency, µM (series often up to 76.9 µM), for inactives: at the highest dose activation (cAMP increase), usual class: activators; 340,000 compounds, 0.13% hits; AID 624287; active = well fitted activation curve with a large enough effect; inconclusive = small, poorly fitted or top-dose-only effect, or another doubt; inactive = no such curve, though single readings can be large or run the other way; cell line not stated here;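 note: phosphodiesterase inhibitor Ro 20-1724 added with compounds to block cAMP breakdown; potency is the fitted concentration of half-maximal effect; nearly all actives have a fitted effect of over 60% in size; about a fifth of the inactives were tested at one dose only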
#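 Cells stably selected in G418 were plated at 2000/well, grown 16-24 hr, then given compounds in DMSO with the PDE inhibitor […] (300 uM solution added) for 30 min at 37C; cAMP was read by HTRF.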
# TRPML1 inh – human mucolipin-1 channel inhibition | Q9GZU1 | TRPML1-inducible cells, Ca2+ dye fluorescence, FDSS; active compounds read low; inhibition of EC80 agonist-evoked calcium signal | activity change, negative = inhibition, % (test concentration not listed) | 390,000 compounds, 0.02% hits | AID 624415; in the data active means activity change below about -50%; inconclusive means about -30% to -50%; inactive means above about -30%;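 note: stimulus is agonist 54-4 at its EC80 concentration; % is set by controls: 0 for no effect and ±100 for the full control effect; compound concentration not given in the record; the text of the record puts the active cut at -80%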
#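 TRPML1-DL cells, Tet-induced overnight (~16 h, 37 °C) at 1,500 cells/well, were loaded with Ca8 no-wash dye plus quencher for 45-90 min at room temperature. Compounds were pinned during FDSS kinetic reading; agonist 54-4 at EC80 (4 uM final) then added.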
# Sfp inh – inhibitors of Bacillus subtilis Sfp phosphopantetheinyl transferase | 310,000 compounds, 3.5% hits | Potency, µM, inactives show max response, negative = inhibition, usual class: inhibitors | Biochemical Sfp PPTase activity, qHTS; active = well fitted inhibition curve with a large enough effect; inconclusive = small, poorly fitted or top-dose-only effect, or another doubt; inactive = no such curve, though single readings can be large or run the other way;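 note: the enzyme is Sfp with the accession as filed and its product quenches rhodamine fluorescence; potency is the fitted concentration of half-maximal effect; 0% = enzyme reaction without inhibitor and -100% = no enzyme wells; top concentration of the series not given in the record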
#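 Compounds were incubated with enzyme (final 15 nM) for 15 min at room temperature before substrate addition started the reaction. Fluorescence at 525 nm excitation, 598 nm emission was recorded immediately and after 30 minutes.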
# TRPV1 PAM – human TRPV1 potentiation; 320,000 compounds, 0.02% hits; AID 540277; potentiation, % at 8.33 µM; TRPV1-expressing cells, Fluo-8 calcium influx, capsaicin EC20 potentiation; host cell line not named in the record; control for the full effect not named in the record; active means potentiation above 80%; inconclusive means 30% to 80%; inactive means below 30%; note: 0% is about no effect
# Target sequence (Q8NER1 whole entry, looked up): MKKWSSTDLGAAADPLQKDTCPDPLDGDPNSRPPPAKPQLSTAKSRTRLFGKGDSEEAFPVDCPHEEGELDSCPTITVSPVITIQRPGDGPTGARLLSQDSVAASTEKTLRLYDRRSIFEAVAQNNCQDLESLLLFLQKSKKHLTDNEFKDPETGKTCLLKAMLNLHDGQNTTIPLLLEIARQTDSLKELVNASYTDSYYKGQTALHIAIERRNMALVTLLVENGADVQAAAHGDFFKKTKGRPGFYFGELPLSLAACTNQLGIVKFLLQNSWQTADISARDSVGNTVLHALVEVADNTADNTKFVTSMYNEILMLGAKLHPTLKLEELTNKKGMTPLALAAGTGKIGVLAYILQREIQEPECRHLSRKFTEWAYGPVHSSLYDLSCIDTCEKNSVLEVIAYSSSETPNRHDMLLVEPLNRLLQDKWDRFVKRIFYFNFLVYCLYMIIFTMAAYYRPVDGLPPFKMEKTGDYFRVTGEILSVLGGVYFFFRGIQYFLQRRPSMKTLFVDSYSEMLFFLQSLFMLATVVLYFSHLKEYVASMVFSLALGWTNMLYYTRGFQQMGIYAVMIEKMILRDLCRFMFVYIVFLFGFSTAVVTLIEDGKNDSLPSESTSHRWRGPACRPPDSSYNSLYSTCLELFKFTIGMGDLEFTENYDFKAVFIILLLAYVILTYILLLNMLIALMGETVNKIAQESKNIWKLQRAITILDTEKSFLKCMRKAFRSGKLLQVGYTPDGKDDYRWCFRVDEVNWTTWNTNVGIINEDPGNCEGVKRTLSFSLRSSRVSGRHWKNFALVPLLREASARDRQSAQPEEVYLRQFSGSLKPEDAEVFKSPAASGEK
#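 TRPV1-expressing cells were cultured overnight at 35.5C and loaded with Fluo-8 calcium dye for 40 to 90 min at room temperature. After a 10 s baseline, compound was added and calcium influx was read kinetically for 3 min (ex 480/em 520 nm).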
# gsp antagonist – antagonizes gsp, the McCune-Albright syndrome mutation; gsp-mutant cells, cAMP HTRF, 30 min; control for the full effect not named in the record; Potency, µM (titrated, usually from 76.9 µM), inactives show at the highest dose activity change, negative = inhibition, actives largely listed as inhibitors; 340,000 compounds, 0.4% hits; AID 624288; active = falling curve of any shape with a large fitted effect; inconclusive = falling curve, mostly with a smaller effect; inactive = flat or rising curve; cell line not stated here;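 note: intracellular cAMP measured with PDE inhibitor Ro 20-1724 present during compound exposure; potency is the fitted concentration of half-maximal effect; % is set by controls: 0 for no effect and ±100 for the full control effect; nearly all actives have a fitted effect of over 65% in size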
#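 Cells, 2000/well, grown 16–24 h in DMEM 10% FBS with 0.5 mg/ml G418, then compounds plus […] (300 uM addition stock), 30 min at 37C. cAMP read by HTRF (cAMP-d2 and anti-cAMP antibody-K in lysis buffer) after 30 min RT.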
# ClpP mod – qHTS Assay for Activators of ClpP; ATP-dependent Clp protease proteolytic subunit (Bacillus subtilis (strain 168)), P80244; purified B. subtilis ClpP, FRET peptide cleavage, 20 min; Potency, µM (titrated, usually from 57.5 µM), for the others: at the top dose activity change, negative = active; 340,000 compounds, 1.9% hits; active = well fitted falling curve with a large enough effect; inconclusive = small, poorly fitted or top-dose-only effect; inactive = no such curve, though single readings can be large or run the other way; note: potency is the fitted concentration of half-maximal effect; the source files actives as falling curves though it sought activators and does not explain the sign; nearly all actives have a fitted effect of over 65% in size; many hits overshoot -100%
# Target sequence (P80244 whole entry, looked up): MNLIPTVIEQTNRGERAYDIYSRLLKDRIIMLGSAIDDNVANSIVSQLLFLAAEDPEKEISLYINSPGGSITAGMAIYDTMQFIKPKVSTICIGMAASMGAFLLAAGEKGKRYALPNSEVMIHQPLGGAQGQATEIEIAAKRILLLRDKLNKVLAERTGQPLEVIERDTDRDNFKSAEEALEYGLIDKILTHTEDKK
#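 Buffer: 100 mM Tris/HCl pH8, 100 mM KCl, 0.05% low protease BSA, 2.5% glycerol, 0.01% Tween-20. ClpP 10 microg/mL final; 20 min RT; delta FRET normalized to ADEP and DMSO controls.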
# * = called active by the depositor; ? = inconclusive; nt = not tested or not shown; & = joins results of further samples; [ ] = dose if it differs, or a comment. This is a random part of the collection; any-hit rate near 4.9%.
SMILES,Menin MLL FP FL,gsp agonist,TRPML1 inh,Sfp inh,TRPV1 PAM,gsp antagonist,ClpP mod
O=C(CN1CCN(Cc2ccccc2)CC1)Nc1ccc(Br)cc1,-5.0,-2%,-1,0%,8,6%,0.1%
CCC(C)[C@@H](C(=O)Nc1ccc2c(c1)OCO2)N1Cc2ccccc2C1=O (stereo not given in full),3.2,-2%,15,-17%,nt,-13%,1.2%
COC(=O)C(NC(C)=O)(Nc1sc2c(c1C(N)=O)CCCC2)C(F)(F)F (stereo not given),2.6,-2%,-24,-4%,3,-11%,-1.5%
COc1cc(-c2noc(C)c2C(=O)NCCCN2CCCC2=O)cc(OC)c1OC,nt,nt,5,nt,nt,2%,-8.8%
COCCn1c(=S)[nH]c2cc(C(=O)NC3CCCCCC3)ccc2c1=O,nt,-47%[inhibitor],8,nt,nt,nt,-2.2%
Cn1cc(Br)c(C(=O)N2CCCCCC2)n1,0.6,?,-6,6%,9,5%,2.2%
COc1cccc(CNS(=O)(=O)c2ccc3c(c2)N(C(C)=O)CCO3)c1,-5.4,-9%,1,15%,-19,4%,-0.2%
CCCCNC(=O)CN(CCc1ccccc1)S(C)(=O)=O,1.4,0%,9,15%,-2,2%,0.4%
CCCN(CCC)CCCNC(=O)c1ccc2c(c1)N(CC)C(=O)c1ccccc1S2=O (stereo not given),0.3,?,-12,5%,9,6%,0.2%
Cc1ccc(C(=O)ON=C2CCN(S(=O)(=O)c3ccccc3)CC2)cc1,6.4,13%,9,-7%,-21,-6%,-0.9%
CCOC(=O)[C@H]1[C@H]2COc3ccc(Cl)cc3[C@@H]2N2C(=O)c3ccc(F)cc3NC(=O)[C@@]12C,nt,nt,-9,nt,30,-13%,0.0%
CC1CCCC(NC(=O)NC(=O)COC(=O)c2ccc(O)cc2O)C1C (stereo not given),nt,24%,25,nt,1,-9%,-2.2%
CC(C)Oc1ncnc2c1[nH]c1ccccc12,-0.7,-13%,-7,24%,nt,-14%,4.0%
NC(N)=Nc1cc2ccccc2c2ccccc12,1.4,nt,nt,8%,-7,nt,nt
COc1ccc(Sc2nc(-c3ccccn3)ncc2OC)cc1,-1.6,22%,30,-8%,4,-3%,nt
Cc1cccc(C)c1N1CCN(S(=O)(=O)N2CCOCC2)CC1,-12,6%,-12,-4%,-18,-14%,-8.7%
CCn1c(=NC(=O)CS(=O)(=O)c2ccc(F)cc2)sc2cccc(OC)c21,nt,-6%,19,nt,1,-17%,?
CCCCN(Cc1cc2cc(OC)ccc2[nH]c1=O)C(=O)c1ccco1,2.0,?,2,?,5,-9%,32µM*
CC(=O)NCCn1c(SCC(=O)NCCC(C)C)nc2ccccc2c1=O,2.5,21%,82,23%,9,-5%,-3.9%
Cc1ccc(C)c(CSc2nnc(-c3ccccn3)n2N)c1,1.0,17%,-4,12%,-14,-2%,-4.2%
CN(Cc1nccn1C)C(=O)c1ccc2nc(Cc3ccccc3F)oc2c1,nt,7%,11,11%,5,-1%,-1.0%
CC1CC(Nc2ccccc2)c2ccccc2N1C(=O)c1cccnc1 (stereo not given),2.0,11%,-7,-3%,8,-3%,-3.6%
Cc1ccc(-c2nc(CS(=O)CC(=O)N3CCN(c4ccc(F)cc4)CC3)c(C)o2)cc1 (stereo not given),nt,4%,-2&-10,4%,1,9%,3.0%&-7.0%
COc1ccc(N(C)C(=O)C2CCN(S(=O)(=O)c3cccc4nonc34)CC2)c(OC)c1,4.2,-39%[inhibitor],0,22%,-12,?,nt
COCCNC(=O)c1cc(S(=O)(=O)N2CCCCC2)ccc1N1CCOCC1,nt,16%,1,nt,2,3%,-13%
CCCCNC(=S)N(CCN(CC)CC)Cc1cc2cc3c(cc2[nH]c1=O)OCO3,-8.7,-1%,-4,21%,12,6%,4.9%
Nc1ccc(C(=O)NC2CCSc3ccccc32)cc1[N+](=O)[O-] (stereo not given),nt,28%,28,-8%,2,-11%,-2.3%
CN(C)c1ccc2c(c1)C(=NO)c1ccccc1-2,nt,18%,-10,nt,nt,-24%,0.6%
COCC(=O)N1CCC(Oc2ccc(C(=O)N3C[C@H]4CC[C@H]3C4)cc2)CC1,4.7,1%,-14,20%,-4,7%,-2.2%
OC1(c2ccc(F)cc2)CCN(Cc2nnnn2Cc2cccs2)CC1,-0.4,-34%[inhibitor],3,-9%,11,1%,0.4%

# Given with two lines to a compound: 2 of the compounds above.
# Order of results – Menin MLL FP FL	gsp agonist	TRPML1 inh	Sfp inh	TRPV1 PAM	gsp antagonist	ClpP mod
- CC1CC(Nc2ccccc2)c2ccccc2N1C(=O)c1cccnc1 (stereo not given)
  2.0	11%	-7	-3%	8	-3%	-3.6%
- Cc1cccc(C)c1N1CCN(S(=O)(=O)N2CCOCC2)CC1
  -12	6%	-12	-4%	-18	-14%	-8.7%

# Additional compounds:
SMILES,Menin MLL FP FL,gsp agonist,TRPML1 inh,Sfp inh,TRPV1 PAM,gsp antagonist,ClpP mod
Cc1cccc(NC(=O)Cn2c(=O)oc3cc(S(=O)(=O)N4CCCC4)ccc32)n1,1.2,5%,10,11%,12,-1%,1.6%
COc1cccc(-n2c(SCC(=O)NCCC3=CCCCC3)nc3n[nH]c(C)c3c2=N)c1,0.5,-29%,-13,?,15,-10%,-2.3%
O=C(CNC(=O)c1ccc(Br)cc1)NCC(=O)OCc1ccc(Cl)cc1,-1.9,-10%,13,11%,-19,-1%,-0.8%
O=C(O)c1ccc(CSc2nnc(SCc3ccccc3)s2)cc1,-0.1,-7%,-3,11%,-8,-2%,0.7%
O=C(Nc1nnc(C2=COCCO2)o1)c1ccc([N+](=O)[O-])cc1,nt,-1%[15.4 µM],-5,10%,-4,-20%,0.7%
O=C(CCC(=O)c1ccccc1)Nc1ccccc1,nt,-7%[15.4 µM],5,nt,nt,4%,nt
O=C(O)c1ccccc1N(Cc1ccccc1)C(=O)CO/N=C/c1ccccc1,2.3,-13%,-23,10%,-4,-6%,nt
CCOC1CCCCC1NS(=O)(=O)c1ccc(Cl)cc1 (stereo not given),-1.1,7%,-10,1%,-4,-1%,-2.2%
Cc1cc(C(=O)NCC(c2cccs2)N2CCOCC2)ccc1[N+](=O)[O-] (stereo not given),nt,-15%,12,25%,-1,6%,1.8%
Cn1c(SCC(=O)Nc2cccc(S(=O)(=O)NC3=NCCCCC3)c2)nnc1-c1ccccc1,1.0,15%,-8,22%,3,3%,-2.0%
N#C/C(=N\Nc1ccc(Br)cc1)C(=N)N1CCOCC1,4.2,-2%,21,-11%,-37,-14%,1.4%
O=C1C[C@@H]2c3c(cccc3CN1Cc1ccccc1Br)C[C@@H](O)[C@H]2O,nt,nt,-9,nt,nt,3%,0.1%&-1.5%
CC(C)NC(=S)N1CCN(S(=O)(=O)c2cccc(C(F)(F)F)c2)CC1,4.5,-105%[inhibitor],-3,7%,-5,3%,-4.1%
COC(=O)c1cc2occc2n1Cc1cccc(C)c1,0.5,18%,12&-2,-2%,2,-8%,-6.8%
CCC1(c2ccc(F)cc2)NC(=O)N(CC(=O)Nc2ccccc2Cl)C1=O (stereo not given),1.9,-14%[15.4 µM],-10,-6%,3,6%,nt
C=CCn1c(SCC(=O)c2c(N)n(C)c(=O)n(C)c2=O)nc2sc(C)c(C)c2c1=O,4.2,-47%[inhibitor],-5,5%,-35,11%,-1.3%
O=C(Nc1ccc(Cl)cn1)c1ccccc1-c1ccccc1,nt,-13%,-4,nt,nt,nt,2.2%
O=C(NCN1CCOCC1)c1cnccn1,-0.6,-4%,12,9%&-1%,6,13%,-1.2%
O=C(CCCc1ccccc1)NCc1ccc(F)cc1,9.7,2%,49,0%,-13,13%,-1.7%
CN(c1ccccc1C(=O)Nc1cccnc1)S(C)(=O)=O,5.9,4%,-9,6%,6,9%,-0.3%
Cn1c(=O)n(C)c2cc(/C=N/NC(N)=S)ccc21,-2.9,-1%[15.4 µM],-5,32µM*,-6,nt,nt
CC(=O)Nc1ccc2c(c1)Cc1ccc(Cl)cc1-2,nt,31%,-14,nt,nt,-19%,nt
CC(C(=O)NC1(C#N)CCCCC1)N(C)CC(=O)Nc1ccc(Cl)c(Cl)c1 (stereo not given),nt,15%,-4,nt,-4,-15%,-2.3%
COc1ccc(C2NC(=S)NC(O)(C(F)(F)F)C2C(=O)c2cccs2)cc1 (stereo not given),1.6,-46%[inhibitor],1,14%,-2,6%,-3.3%
Cc1ccccc1N(CC(=O)NC(C)(C)C)C(=O)CS(=O)CC(=O)Nc1ccc2c(c1)OCO2 (stereo not given),-5.7,-31%,-3,5%,-9,1%,nt
COc1c(C(=O)NNC(=O)c2ccccc2)csc1Br,4.7,4%[15.4 µM],-22,16%,nt,15%,0.2%
O=[N+]([O-])/C(=C\Nc1ccc(F)cc1F)S(=O)(=O)c1ccccc1,-1.5,4%,15,14%,7,-3%,0.0%
C=CCSc1nc(C)c2cc(C)cc(C)c2n1,0.4,-20%,17,-8%,6,-29%,-13%
Cc1ccc(C(=O)Nc2cccc(NC(=O)c3ccc(C)o3)n2)o1,-0.6,-34%[inhibitor],1,23%,?,-8%,nt
C[C@@H]1CC[C@@]2(OC1)O[C@H]1C[C@H]3[C@@H]4CC=C5C[C@@H](O)[C@H](O)C[C@]5(C)C4CC[C@]3(C)[C@H]1[C@@H]2C (stereo not given in full),-15,-10%,-26,-6%,?,6%,-3.5%
CCc1ccc(C(=O)OCC(=O)NCC(F)(F)F)cc1,0.7,-1%[15.4 µM],9,-6%,-8,3%,nt
O=C(COc1ccccc1Cl)Nc1ccccc1C(=O)N1CCOCC1,4.2,-6%[15.4 µM],4,0%,-11,1%,-17%
CN1/C(=C/c2cccc[n+]2CCO)Sc2ccccc21,1.9,-28%[15.4 µM],1,-1%,-4,0%,-0.5%
O=C(CSc1nc2ccccc2c(=O)n1NC(=O)Cc1ccccc1)NCc1ccco1,1.8,-47%[inhibitor],-2,-13%,-15,-16%,-0.3%
CCOC(=O)CC1COc2ccccc2N1C(=O)c1ccc(F)cc1 (stereo not given),0.4,9%[15.4 µM],8,14%,-17,-9%,-0.8%
CCOc1ccc(NC(=O)CN(C)C(=O)c2cccnc2Sc2ccc(C)c(C)c2)cc1OCC,-1.7,6%,7,-1%,27,-5%,-2.6%
